# Source: PubChem
# HTT prom inh – inhibits huntingtin promoter activity | HEK293 HTT promoter firefly luciferase reporter (activity 0% = vehicle and -100% = no light), 24 h | Potency, µM (top dose mostly 57.5 µM), inactives show at the highest dose activity change, negative = inhibition, actives largely listed as inhibitors | hit rate 0.93% among 48,000 | AID 1508623; active means well fitted inhibition curve with a large enough effect; inconclusive means small, poorly fitted or top-dose-only effect; inactive means no such curve, though single readings can be large or run the other way; further: nearly all actives have a fitted effect of over 50% in size
#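 HEK293 luciferase promoter-reporter cells (2,500/well) plated 24 h, then compounds added at up to 57.5 uM final for 24 h at 37 °C. Firefly luminescence by Dual-Glo, normalized to vehicle (0%) and zero RLU (-100%).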
# PMP22 txn – modulates PMP22 transcription in S16 Schwann cells; hit rate 2% among 43,000; Potency, µM (series often up to 57.5 µM), without a hit: at the highest dose activity change, negative = inhibition, most hits filed as inhibitors; S16 Pmp22-F2sN Schwann cells (luciferase reporters placed in the Pmp22 gene), FLuc/NLuc coincidence luminescence, 24 h; active = clear falling dose curves in both reporters; inconclusive = both reporters move, but less clearly or upward; inactive = either reporter flat; the % is the NLuc reporter signal; further: on the % scale 0 is the no-effect control and ±100 the full control effect; some results filed as inactive show a strong effect at the top dose
#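 qHTS, 1536-well. Cells seeded, compounds added by pin tool, 24 h 37C. Nano-Glo reagent 1 (lysis/FLuc), 10 min RT, read; Stop&Glo, 10 min RT, read NLuc.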
# * = called active by the depositor; ? = inconclusive; . = not tested or not shown; & = joins results of further samples; [ ] = remark or other dose. Potency means the concentration at half of the fitted maximal effect.
# Under each structure: HTT prom inh	PMP22 txn
1: CCCCN1C(=O)c2[nH]nc(-c3ccccc3O)c2C1c1cccc(OCc2ccccc2)c1 (centres undefined)
    ?	?
2: O=S(=O)(NCCc1ccccc1)c1ccc(N2CCCCS2(=O)=O)cc1
    ?	?
3: O=C(NCCc1csc(-c2ccc(C(F)(F)F)cc2)n1)c1ccc(F)c(F)c1
    ?	?
4: COc1ccc(-c2nnc(SCC(=O)Oc3cc(C)ccc3C)o2)cc1
    -11%	9%
5: CCOc1cc(CNCCSc2nnnn2C)ccc1OCc1ccc(Cl)cc1Cl
    ?	?
6: Cc1cc(C(=O)C(=O)Nc2nncs2)c(C)n1-c1ccc(Cl)cc1
    -1%	?
7: Cc1cc(N)c(-n2cc3c(c2-c2ccc(Br)cc2)c(=O)n(C)c(=O)n3C)cc1C
    -4%	?
8: COc1ccc(NC(=O)CSc2nnc(NC(=O)NC3CCCCC3)s2)cc1OC
    75%[activator]	-28%
9: CCOCCCN(Cc1ccco1)C(=O)c1cc2c(s1)-c1c(C)cccc1OC2
    ?	?
10: N#Cc1c(-n2ncnc2-c2ccc(Br)cc2)sc2c1CCCCC2
    ?	4%
11: O=C(CSc1n[nH]c(-c2ccccc2)n1)N1CCN(c2ccccc2F)CC1
    -9%	-4%
12: CCOC(=O)c1c(NC(=O)CSc2cn(CCNC(=O)c3ccc(OC)cc3)c3ccccc23)sc2c1CCCC2
    ?	1%
13: O=C(Cn1c(=O)c2cccn2c2cccnc21)NCc1ccccc1F
    -2%	7%
14: NC(N)=NC(=O)c1nc(Cl)c(N)nc1N
    4%&-14%	.
15: Cc1ccc(C)c(N2CCN(C(=O)CCS(=O)(=O)c3ccc4c(c3)CC(=O)N4C)CC2)c1
    -93%	?
16: COc1cc(C(CC(=O)NCCC(C)C)N2Cc3ccccc3C2=O)cc(OC)c1OC (centres undefined)
    -22%	-14%
17: CCCCc1cc(=O)oc2cc(C)c3c(C)coc3c12
    -8%	-4%
18: COc1cc(C2c3c(-c4ccccc4O)n[nH]c3C(=O)N2Cc2ccncc2)ccc1O (centres undefined)
    -9%	-21%
19: Cc1ccccc1-c1nc(CN2CCCC(C(=O)NCc3ccc(Cl)cc3)C2)c(C)o1 (centres undefined)
    -9%	?
20: Cc1ccc(Nc2nc3c(S(=O)(=O)c4ccccc4)nnn3c3ccsc23)c(C)c1
    -11%	?
21: O=C(Nc1cccc2c(=O)cc(-c3nn[nH]n3)oc12)c1ccc(OCCCCc2ccccc2)cc1
    ?	.
22: Cc1ccc2oc(C(=O)Nc3cccc(Cl)c3)cc(=O)c2c1
    -14%[11.5 µM]	1%
23: CCOCCCNC(=O)NC(CCC(C)C)c1c(-n2cccc2)sc2c1CCN(C)C2 (centres undefined)
    -31%	?
24: CCOC(=O)c1cccc(NC(=O)CCCn2c(C)c3cnn(-c4ccccc4)c(=O)c3c2C)c1
    -24%	-8%
25: Cc1ccc(S(=O)Cc2ccc(C(=O)NC3CCCCCC3)o2)cc1 (centres undefined)
    -10%	-16%
26: CCOc1ccc(Nc2oc(-c3ccc(COc4ccc(C)cc4)o3)nc2C#N)cc1
    -21%	?
27: CCOc1ccccc1NC(=O)Cn1cc(C(=O)c2cccc(OC)c2)c(=O)c2ccc(C)nc21
    -18%	-2%
28: Cc1ccc(Nc2nc(C)c(NC(=O)c3ccc(C)cc3)c(Nc3ccc(C)cc3)n2)cc1
    ?	?
29: COc1ccc(C(=O)NCCn2cc(SCc3cc(C)ccc3C)c3ccccc32)cc1
    ?	?
30: CN1C2CCC1CC(OC(=O)C(CO)c1ccccc1)C2 (centres undefined)
    2%	.
31: Cc1ccnc(NS(=O)(=O)c2cc(-c3cc(C)no3)ccc2C)c1
    -21%	19%
32: CC(=O)[C@@]1(O)CC[C@H]2[C@@H]3CCC4=CC(=O)CC[C@]4(C)[C@H]3CC[C@@]21C
    -4%	.
33: Cc1ccc(C)c(CN2C(=O)c3ccccc3S(=O)(=O)c3ccc(C(=O)N4CCN(c5ccccc5F)CC4)cc32)c1
    -9%	-85%
34: COc1cc(NC(=O)CNS(=O)(=O)c2cccs2)cc(OC)c1OC
    7%	-13%
35: Cc1c(Cl)cccc1N1CC(c2nc3ccccc3n2Cc2ccccc2F)CC1=O (centres undefined)
    6%	?
36: CC1CCN(Cc2c(O)ccc3c(=O)c(Oc4ccccc4Cl)c(C(F)(F)F)oc23)CC1
    -22%	?
37: COc1ccc(NCc2cc3cc4c(cc3n(CC(=O)Nc3ccc(C)cc3)c2=O)OCO4)cc1
    ?	?
38: CCCCNC(=O)Cn1c(=O)cc(C)c2c(C)nn(-c3ccc(CC)cc3)c21
    -17%	0%
39: COc1ccccc1N1CCN(C(=O)c2cn(C)c3ccc(S(=O)(=O)N4CCOCC4)cc3c2=O)CC1
    -16%[11.5 µM]	3%
40: COc1cc(CN(C(=O)c2ccc(Cl)cc2)C2CCS(=O)(=O)C2)cc(OC)c1OC (centres undefined)
    -11%	0%
41: COc1cc(Cl)c(C)cc1Nc1nc2ccccc2nc1NS(=O)(=O)c1ccccc1
    59%[activator]	-7%
42: COC(=O)c1ccccc1NC(=O)Cn1c(=O)n(CCCC(=O)NCc2ccccc2OC)c(=O)c2ccccc21
    -5%	?
43: CC(C)c1ccc(NC(=O)C2CCN(c3nc(-c4ccc(C(C)C)cc4)no3)CC2)cc1
    0.089µM*	?
44: CCc1ccc(C(=O)Nc2cccc(-c3nc4cc(C(C)C)ccc4o3)c2)cc1
    -4%	?
45: COc1ccc2c(c1)CC(C(=O)NCCN1CCN(c3ccccc3F)CC1)CO2 (centres undefined)
    -17%	-32%
46: CC(C)CC(=O)NCC(c1ccc2c(c1)OCO2)N1CCN(c2ccccc2F)CC1 (centres undefined)
    -12%	5%
47: CCCOc1ccc(CN(C(=O)c2cc(=O)c3ccc(C)cc3o2)C2CCS(=O)(=O)C2)cc1 (centres undefined)
    -16%	?
48: Cc1cccc2c(=O)cc(CSc3ccccc3NC(=O)c3cccc(Br)c3)[nH]c12
    -9%	-6%
49: COc1cc(-c2noc(CN3CCN(c4cccc(Cl)c4)CC3)n2)cc(OC)c1OC
    -21%	-11%
50: CCS(=O)(=O)c1ncc(Cl)c(C(=O)N(Cc2ccccc2)c2ccc(OC)cc2)n1
    16µM*	2.2µM*
51: Cc1cc(=O)oc2c3c(ccc12)OCN(Cc1ccccc1Cl)C3
    -16%	-29%
52: Cc1cccc(NC(=O)c2nnn(CC(=O)Nc3ccc(C(C)C)cc3)c2N)c1C
    -6%	-8%
53: Cc1ccc2nc(N(Cc3cccnc3)C(=O)CCS(=O)(=O)c3ccccc3)sc2c1
    8%	?
54: O=C(Nc1cccc(F)c1)C1CCN(S(=O)(=O)c2cccc3nsnc23)CC1
    -10%	-16%
55: Cc1cc(C)c(NC(=O)Cc2ccc(-n3c(C)nc4cccnc43)cc2)c(C)c1
    ?	?
56: O=S(=O)(Nc1ccc(F)c(Cl)c1)c1ccc(Br)s1
    ?	-181%
57: CCc1ccc(OCC(=O)Nc2cc3oc4ccccc4c3cc2OC)c(Br)c1
    -13%	-61%
58: Cn1cc(S(=O)(=O)c2cccc(Cl)c2)c(=O)c2cc(F)c(N3CCCCC3)cc21
    ?	?
59: COc1cc(NC(=O)c2cccc(F)c2)ccc1NC(=O)c1cc2ccccc2o1
    12%	-11%
60: COc1ccc(-c2csc3ncnc(Nc4cccc(OC)c4)c23)cc1
    ?	-20%

# Next section, starting with the last 6 of the part before.
# Under each structure: HTT prom inh	PMP22 txn
55: Cc1cc(C)c(NC(=O)Cc2ccc(-n3c(C)nc4cccnc43)cc2)c(C)c1
    ?	?
56: O=S(=O)(Nc1ccc(F)c(Cl)c1)c1ccc(Br)s1
    ?	-181%
57: CCc1ccc(OCC(=O)Nc2cc3oc4ccccc4c3cc2OC)c(Br)c1
    -13%	-61%
58: Cn1cc(S(=O)(=O)c2cccc(Cl)c2)c(=O)c2cc(F)c(N3CCCCC3)cc21
    ?	?
59: COc1cc(NC(=O)c2cccc(F)c2)ccc1NC(=O)c1cc2ccccc2o1
    12%	-11%
60: COc1ccc(-c2csc3ncnc(Nc4cccc(OC)c4)c23)cc1
    ?	-20%
61: CCOC(=O)c1ccccc1NC(=O)CSc1nc(=O)[nH]c2c1CCC2
    -12%	?
62: COc1ccc(Cn2ccc3nc(C)c(C(=O)NCc4ccc(OC)cc4OC)cc3c2=O)cc1
    8%	1%
63: CCOc1ccccc1NC(=O)CSc1nccn1Cc1ccc(F)cc1
    -28%	?
64: CCc1ccc(-n2nc(CO)c(C(=O)NCC(c3ccccc3)c3ccccc3)n2)cc1
    -1%	-27%
65: Cc1ccc(-c2cn(-c3ccc(Cl)cc3)c(S(=O)(=O)CC(=O)Nc3ccccc3)n2)cc1
    -19%	?
66: COc1ccc(N2CCN(CCCNC(=O)c3ccc4nc(N5CCCCC5)sc4c3)CC2)cc1
    ?	-14%
67: COC(=O)CCc1sc(Nc2ccc(OC)cc2)nc1-c1ccc(OC)cc1
    -15%	-20%
68: O=C(CN1N=C(c2ccccc2)CCC1=O)NCc1ccc(F)cc1Cl
    -7%	-2%
69: Cc1nnc(N2CCCC(C(=O)Nc3ccccc3C(F)(F)F)C2)c2nn(-c3ccccc3)c(C)c12 (centres undefined)
    ?	13µM*
70: O=C(CCCCn1c(=O)c2ccccc2n(CC(=O)Nc2ccc(F)cc2F)c1=O)NCc1ccccc1Cl
    -8%	16µM*
71: CCN(CC)S(=O)(=O)c1ccc2c(c1)N(CC(=O)Nc1ccc(F)cc1F)C(=O)C1CCCN21 (centres undefined)
    -17%	-2%
72: Cc1ccc2onc(CNC(=O)NCc3ccccc3)c2c1
    8%	-4%
73: COC(=O)c1cc2sc(C)cc2n1Cc1nc(-c2ccc(C)cc2)oc1C
    -1%	8%
74: Cc1nn(C)c2c1c(-c1ccccc1)cc(=O)n2Cc1ccc(Br)cc1F
    9%	8%
75: COc1ccc(-c2nc3c(c(SCC(=O)N4CCCCC4)n2)Cc2c(CO)cnc(C)c2O3)cc1
    -5%	-17%
76: Cc1ccc(-c2noc(CN(C3CCCCC3)S(=O)(=O)c3ccc(F)cc3)n2)cc1
    ?	-26%
77: CC(C)(C)OC(=O)N1CCC(c2c(C(=O)N3CCN(c4ccccc4)CC3)cnn2-c2ccccc2)CC1
    -5%	-6%
78: Cc1ccc(NC(=O)C2CCN(c3nnc(C)c4c(C)n(-c5ccccc5)nc34)CC2)cc1Cl
    -9%	-3%
79: COc1ccccc1CNC(=O)NCc1noc2ccc(C)cc12
    -25%	4%
80: Cc1cc(C)c(S(=O)(=O)NCCc2sc(-c3cccnc3)nc2C)c(C)c1
    -26%	-24%
81: NC(=O)[C@@H](CCC(F)(F)F)N(Cc1ccc(-c2ncon2)cc1F)S(=O)(=O)c1ccc(Cl)cc1
    -27%	.
82: CCOC(=O)N1CCC(NC(=O)c2ccc3c(c2)N(Cc2cccc(C)c2)C(=O)c2ccccc2S3(=O)=O)CC1
    -34%	-17%
83: COc1ccccc1-c1noc(CSc2nnc(-c3ccccc3)n2-c2ccc(C)c(C)c2)n1
    -6%	-22%
84: COc1ccc(C(=O)Nc2noc3ccccc23)cc1
    -10%	10%
85: O=c1[nH]cnc2c1ncn2[C@H]1CC[C@@H](CO)O1
    8%	.
86: Cn1c(=O)c2c(SCC(=O)Nc3ccccc3C(F)(F)F)nc(C3CCCC3)nc2n(C)c1=O
    -10%	0%
87: CCc1cc2c(cc3c(=O)n(CC(=O)N4CCN(c5cc(Cl)ccc5C)CC4)ncn32)s1
    -2%	-21%
88: O=C(CCCCn1c(=O)[nH]c2ccsc2c1=O)N1CCN(c2cccc(C(F)(F)F)c2)CC1
    ?	?
89: O=C(Cn1c(=O)nc(-c2ccccc2)c2cc(Cl)ccc21)NCCCc1ccccc1
    -9%	-17%
90: CCCCCCCCCCCCCC(=O)N[C@H](CO)[C@H](O)c1ccc([N+](=O)[O-])cc1
    -6%	.
91: COc1ccc(Nc2ncnc3c2c(-c2ccccc2)cn3-c2ccc(C)c(Cl)c2)cc1OC
    1%	-6%
92: CCN(CC)C(=O)Cn1c(=O)n(CCCCCC(=O)NCc2ccc3c(c2)OCO3)c(=O)c2sccc21
    -11%	-5%
93: CC(=O)Nc1ccc(NC(=O)c2cc3sccc3n2Cc2ccc(Cl)cc2)cc1
    -24%	-16%
94: CCC(Sc1nc2nccnc2c(=O)n1Cc1ccc(Cl)cc1)C(=O)NC1CCCCC1 (centres undefined)
    -16%	-19%
95: CCN1CCN(Cc2nc3cc(NC(=O)c4ccccc4[N+](=O)[O-])ccc3n2CC)CC1
    -10%	-3%
96: COc1ccc(C(C)=O)cc1CSc1nc(Nc2ccc(F)c(F)c2)c2ccccc2n1
    -25%	18µM*
97: CCc1ccc(NC(=O)C(=O)NCCc2csc(-c3cccc(F)c3)n2)cc1
    -10%	2%
98: CCOc1ccc(CC(=O)NCCc2sc3nc(-c4ccc(OC)cc4)nn3c2C)cc1
    -8%	5%
99: CC(C)(C)CC(C)(C)c1ccc(OCCOCC[N+](C)(C)Cc2ccccc2)cc1
    ?	.
100: Cc1ccc(OCC(=O)OCc2cc(=O)n3c(C)csc3n2)cc1
    -23%	?
101: COc1ccc(OC)c(NC(=O)CSc2nc3ccccc3c(=O)n2CCC(=O)NC2CCCCC2)c1
    10%	?
102: CC1CCCCN1C(=O)Cn1ncc2c3ccccc3n(Cc3ccccc3F)c2c1=O (centres undefined)
    ?	-12%
